Compound activity as filed in PubChem BioAssay.
RN4220 kill – kills Staphylococcus aureus RN4220; S. aureus RN4220 growth, OD600, 16 h; inhibition, % (test concentration not listed); 330,000 compounds, 0.33% hits; AID 1259311;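 active means z-score of -3 or lower and OD600 up to 0.18 on both plates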;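 further: plate controls were untreated cells for no effect and reference antibiotic for full effect; stock transfer was 100 nL into about 80 µL; one replicate is shown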
PrP 5UTR inh – inhibition of PrP 5' UTR reporter expression. AID 488862. 340,000 compounds, 0.35% hits. cell-based PrP 5' UTR mRNA reporter, plate reader. inhibition, % (concentration not given with the values);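 active means every replicate at 50% or more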;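 further: 0 = median of the neutral control wells; tested in H4 reporter cells; numbers are from one replicate; inactives centre near -14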
Mtb hypoxia inh – Mtb hypoxia fluorescent reporter inhibition | M. tuberculosis hypoxia-regulated fluorescent reporter, fluorescence | fluorescence inhibition, % (no concentration beside the values) | 300,000 compounds, 0.1% hits;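 active means 35 to 45% if threefold the growth effect, above 45% if 1.5-fold the growth effect; inactive means the rest, general growth blockers included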;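 further: wells of about 50 µL received 100 nL stock; 0% = vehicle wells and 100% = reference inhibitor wells; whole bacteria with a GFP reporter of the hypoxia response; strong numbers were not always called active; many hits fall short of the cut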
Bead autofluor – flagged as autofluorescent in microsphere protease counterscreen; compound autofluorescence counterscreen, microsphere flow cytometry; active compounds read high; fluorescence intensity (test concentration not listed); 360,000 compounds, 3.1% hits; AID 624483;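 active means at least 3 SD above the mean of all compounds, about 16000 in these data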;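 further: 100 nL of 1 mM stock went into each well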
Sa ugtP lethal – kills S. aureus RN4220 lacking UgtP; S. aureus RN4220 ugtP deletion, OD600 growth, 16 h; some inactives read as strong as hits; growth inhibition, % (concentration not given with the values); 330,000 compounds, 0.54% hits;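 active means z-score under -3 and OD600 up to 0.15 on both plates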;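 further: plate controls were untreated wells for no effect and antibiotic for full effect; wells of about 80 µL received 100 nL stock; the first replicate is given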
BJeLR lethal – kills HRASV12-expressing BJeLR cells; BJeLR (HRASV12) viability, CellTiter-Glo ATP luminescence, 48 h; reference of the scale not given here; 300,000 compounds, 0.17% hits; AID 1554; inhibition, % (no concentration beside the values);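 active means replicate mean above 50%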;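 further: 50 nL library stock added to about 25 µL; numbers are from one replicate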
Mtb hypoxia inh growth – second read-out of Mtb hypoxia inh, no call of its own (marks repeat the call); growth inhibition, %; measured here: M. tuberculosis growth (absorbance);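 0% = vehicle and 100% = reference antibiotic; read after six days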
* hit, by the source's call; / = not tested or not shown.

structure,RN4220 kill,PrP 5UTR inh,Mtb hypoxia inh,Mtb hypoxia inh growth,Bead autofluor,Sa ugtP lethal,BJeLR lethal
CC1(C)CNC(=O)CC(C)(C)N1O,2.5,-29.2,3.6,-4.4,8445,4.8,-3.1
O=C(Nc1ccccc1)c1ccc(S(=O)(=O)N2CCOCC2)cc1,-3.9,-8.4,0.8,-5.2,6859,-6.9,5.1
Cc1cccc(NS(=O)(=O)c2cccc(C(=O)N3CCCC(C(F)(F)F)C3)c2)c1 (stereo unspecified),2.0,-32.7,3.8,-6.4,6232,-1.7,13.3
N#CC1=C(N)Oc2n[nH]c(-c3cccs3)c2C1c1ccncc1 (stereo unspecified),16.3,-2.4,1.5,7.7,3491,7.1,1.3
CCN=C1S/C(=C/c2ccc(-c3ccc(F)cc3)o2)C(=O)N1CC,-3.1,-5.9,17.0,9.9,3780,-2.0,-6.0
CCOC(=O)c1cnc(SCC(=O)Nc2nc(C)c(C)s2)nc1N,0.7,-19.2,7.7,2.1,6026,5.6,-3.5
Cc1ccccc1C(=O)Nc1ccnn1C1CCN(Cc2ccc(CO)o2)CC1,2.0,-3.5,-1.9,2.9,5335,2.0,7.2
COc1ccc(-c2n[nH]c(=S)n2Cc2ccccc2)cc1,4.8,-12.5,10.2,-2.0,/,7.3,0.8
O=C(COC(=O)c1ccccc1NCCO)Nc1cc(C(F)(F)F)ccc1N1CCOCC1,4.9,4.6,3.9,-1.9,6306,3.2,2.4
COc1ccc(-c2csc(NC(=O)C3COc4ccccc4O3)n2)cc1OC (stereo unspecified),6.4,-34.3,15.5,6.1,5544,38.0,-2.6
O=C(NC(=S)N1CCCCCC1)c1ccccc1Cl,3.8,-10.8,12.8,7.2,3429,5.0,0.8
O=C(NC1CCCC1)C(c1ccccn1)N(C(=O)c1csnn1)c1ccc(F)cc1 (stereo unspecified),4.0,-25.1,-6.9,-0.3,3704,6.7,-6.3
O=C(CCc1ccccc1)OCCOC(=O)CCc1ccccc1,0.0,-27.0,12.8,5.6,3644,6.9,-17.9
CCn1cc(C2C(C(=O)Nc3cc(C)ccn3)=C(C)NC3=C2C(=O)CC(C)(C)C3)c(C)n1 (stereo unspecified),2.8,-6.9,10.4,3.3,9486,4.8,7.3
Cc1c(-c2c(C#N)c(N)nc3c2CCCCCC3)cnn1C,4.1,-12.1,/,/,4976,3.4,-6.8
Cc1ccc(NC(=O)Cc2nnc(SCC(=O)NC3CCCC3)n2C)cc1,4.5,-20.7,6.2,2.1,5137,13.0,-2.3
COc1ccc(S(=O)(=O)Oc2c(OC)cc(C(=S)N3CCOCC3)cc2OC)cc1,5.7,-20.9,0.8,0.0,6284,5.9,-0.7
O=[N+]([O-])c1c(Nc2ccc(O)cc2)cc(Cl)c2nonc12,100.3*,-59.9,/,/,3989,99.1*,52.1*
COc1ccc(C(=O)OCC(=O)c2ccc3c(c2)NC(=O)CO3)cc1[N+](=O)[O-],3.2,-19.3,11.0,11.7,3662,1.7,/
N#CC1(C#N)[C@@H](C(=O)C23CC4CC(CC(C4)C2)C3)C12CCOCC2,3.3,-11.8,0.8,8.8,2526,-1.0,9.3
O=C(/C=C/c1ccc(F)cc1)c1ccccc1Br,11.6,-25.5,17.3,12.2,1989,9.8,-16.4
COc1ccc(C(=O)Nc2cccc(S(=O)(=O)NC3=NCCC3)c2)cc1OC,4.7,-7.8,5.0,3.3,7788,2.3,/
CN=c1scc(C)n1/N=C/c1ccc(O)c(O)c1O,/,-29.5,/,/,3726,/,-11.2
O=S(=O)(Nc1ccc(-c2cnco2)cc1)c1ccccc1,4.5,-30.3,4.2,8.8,5517,4.7,-2.6
CCN(CC)c1ccc(/C=N/NC(=O)c2ccc3c(c2)OCCO3)cc1,/,-10.4,/,/,5897,/,-9.7
CC(=O)NCC1COc2ccccc2O1 (stereo unspecified),0.0,-20.2,-2.8,-5.5,4827,-6.4,-2.4
COc1ccc(/C(N)=N/OC(=O)Cc2ccccc2)cc1,0.7,-63.6,-10.4,6.2,2545,11.1,-7.9
O=[N+]([O-])c1cc(C=NN2CCN(c3ccccc3)CC2)ccc1Cl,7.5,/,-0.7,-0.3,/,6.3,/
O=C(COc1ccccc1)Nc1ccc2c(c1)nc1n2CCOC1,-1.0,-31.2,1.5,2.0,8927,-2.2,-5.1
CCCCn1c(=O)c(C(=O)Nc2ccccc2F)c(O)c2ccccc21,7.0,-15.5,10.7,2.0,3400,13.2,-15.5
Fc1ccc2cc(-c3ccsc3)ncc2c1,19.4,-38.8,12.5,9.1,2941,25.9,/
CC(C)c1ccc(C2c3[nH]c4ccccc4c3C[C@H]3C(=O)N(c4ccccc4C(=O)N4CCC[C@H]4C(=O)O)C(=O)N23)cc1 (stereo partly specified),3.3,-11.0,/,/,5905,-8.0,-6.4
CCO[C@H]1OC(C(=O)NCc2ccccc2)=C[C@@H](C2CC2)[C@@H]1CCCO,/,-13.3,/,/,3821,/,-9.6
CCC(=O)N1CCN(c2ccc(Cl)cc2NC(=O)c2ccc([N+](=O)[O-])o2)CC1,9.7,-12.6,2.8,4.9,4163,20.2,0.0
COc1ccc(-c2cc(CC3(C(=O)O)CCN(C(=O)OC(C)(C)C)CC3)on2)c(OC)c1,/,-13.4,/,/,2959,/,-1.2
O=C(O)c1ccc(-n2ncc3c2/C(=C\c2cccc([N+](=O)[O-])c2)CC3)cc1,1.0,-28.2,-15.9,8.9,3839,-21.3,/
CCN1CCN(CCNC(=O)Cn2c(=O)c3cccn3c3ccc(F)cc32)CC1,2.9,-2.8,12.9,8.5,6129,7.4,-4.0
CC(=O)Nc1cccc(C(C)=NNC(=O)c2cc(-c3ccncc3)nc3ccccc23)c1,-0.2,/,-5.5,-3.5,/,-2.3,/
COc1ccc2c(c1)CCC2=NOC(=O)c1cccc(C)c1,10.1,/,5.2,2.7,/,3.9,/
Cn1cc(/C=N/Nc2ccccc2)c2ccccc21,/,-25.6,/,/,4123,/,1.4
Cc1ccc(CNC(=O)CN(c2ccc(C)cc2)S(=O)(=O)c2c(C)n[nH]c2C)cc1,0.5,-10.4,-2.3,4.3,5722,-0.7,9.6
Cc1ccc(NC(=O)CN(C)S(=O)(=O)c2cccc3cccnc23)cc1F,1.8,-5.4,1.8,1.0,4055,7.2,7.0
COCCCN=Cc1c(C)[nH]n(-c2ccc(Br)cc2Br)c1=O,7.1,-16.9,8.3,-1.1,4865,3.3,-1.5
COc1cccc(CNC(=O)CCC(=O)N2Cc3cccc(OC)c3Oc3ncccc32)c1OC,0.6,-6.8,-2.7,-2.6,4952,0.6,6.8
c1csc(CNc2ncnc3sccc23)c1,1.0,-21.7,-3.9,-0.9,10332,-5.2,10.6
Clc1cccc(Cl)c1C1=NOC(c2nnc(-c3ccccc3)o2)C1 (stereo unspecified),12.4,-30.2,7.3,8.5,3827,10.0,-15.0
C=CCN(CC=C)Cc1c(O)ccc2c1oc(=O)c1ccccc12,9.3,-14.1,12.8,-1.1,10845,-6.0,-14.5
O=C(O)c1cc(N=Nc2c(O)ccc3ccccc23)cc(C(=O)O)c1,0.1,-46.1,/,/,2492,2.4,/
CCOc1cc(C=NNC(=O)CSc2nnc(C)s2)ccc1OCc1ccccc1Cl,4.0,/,-1.5,-4.1,/,-15.1,/
Cc1cccc(NS(=O)(=O)c2ccc(C)c(C(=O)OCC(=O)Nc3cc(C)on3)c2)c1,3.7,-8.5,-0.6,5.5,8890,-1.7,-2.0

Full records as entered above. Screens in order: RN4220 kill | PrP 5UTR inh | Mtb hypoxia inh | Mtb hypoxia inh growth | Bead autofluor | Sa ugtP lethal | BJeLR lethal
COc1ccc2c(c1)CCC2=NOC(=O)c1cccc(C)c1 as listed: 10.1 | / | 5.2 | 2.7 | / | 3.9 | /
C=CCN(CC=C)Cc1c(O)ccc2c1oc(=O)c1ccccc12 as listed: 9.3 | -14.1 | 12.8 | -1.1 | 10845 | -6.0 | -14.5
Cn1cc(/C=N/Nc2ccccc2)c2ccccc21 as listed: / | -25.6 | / | / | 4123 | / | 1.4

Next section.
structure,RN4220 kill,PrP 5UTR inh,Mtb hypoxia inh,Mtb hypoxia inh growth,Bead autofluor,Sa ugtP lethal,BJeLR lethal
CC(Oc1cc2oc(=O)c3c(c2cc1Cl)CCCC3)C(=O)NCCN1CCOCC1 (stereo unspecified),6.5,3.8,5.4,4.8,5807,1.4,-2.6
Nc1nc2n(n1)C(c1ccccc1)CC(c1ccc(F)cc1)N2 (stereo unspecified),0.5,-14.0,/,/,5208,2.9,2.2
COc1ccc(-c2nnc(SCC(=O)Nc3cc(C)on3)n2N)cc1OC,6.5,-12.4,1.4,3.6,3976,0.2,3.0
COc1ccc(NC(=O)NC(C)C2CC3CCC2C3)cc1 (stereo unspecified),-2.1,-2.9,-1.9,27.8,1992,8.6,-17.4
CN(C)CCN1C(=O)C(=O)/C(=C(/O)c2ccc(F)cc2)C1c1ccccc1 (stereo unspecified),18.9,4.0,2.3,4.7,2954,5.7,5.8
CC/C(Cc1ccccc1)=N\NC(=O)c1cc(C)oc1C,/,-25.3,/,/,2108,/,-14.1
CCCOc1ccc(/C=C/C(=O)NCc2ccccc2)cc1,2.9,-14.9,12.4,8.3,2626,13.8,-1.0
CC(C)COP(=O)(c1ccc(N(C)C)cc1)C(O)c1ccccn1 (stereo unspecified),5.5,-8.5,-0.1,-4.4,10074,0.3,0.1
O=C(COC(=O)c1cc(-c2cccs2)nn1-c1ccccc1)Nc1ccc(Cl)c([N+](=O)[O-])c1,-1.0,-9.8,7.6,-2.9,2001,1.8,7.6
Cc1ccc(OC(C)C(=O)Nc2ccc(C)c(S(=O)(=O)Nc3ccc(C)cc3C)c2)cc1 (stereo unspecified),-5.7,-6.9,11.4,-4.2,2131,-13.4,-11.9
N/C(=N\OC(=O)CCCCCN1C(=O)c2ccccc2C1=O)c1ccccn1,4.7,-9.9,4.7,1.5,4147,6.2,-0.8
Cn1c(COc2ccc([N+](=O)[O-])cc2)nnc1SCC(=O)NCC1CCCO1 (stereo unspecified),2.1,-27.8,5.0,-3.2,3135,12.2,2.6
O=S(=O)(/C(=C/c1ccc(C(F)(F)F)cc1)c1nc2ccccc2[nH]1)c1ccccc1,38.1,-70.8,4.5,9.3,2584,11.4,67.9*
O=C(O)CC/C(=N/Nc1ncc(C(F)(F)F)cc1Cl)C(=O)O,/,-29.2,/,/,2357,/,-14.5
Cc1ccc(C)c2nc(SCC(=O)Nc3ccc4c(c3)OCO4)c(C#N)cc12,-2.3,-11.3,-12.8,6.4,5717,-4.9,6.3
Cc1ccccc1NC(=S)NN=Cc1ccc(O)cc1O,-0.1,/,-2.2,-4.0,/,-5.1,/
CN1c2ccccc2Sc2cc(N)ccc21,/,-11.2,/,/,2223,/,6.0
O=C(Nc1cccc(F)c1)N1CCC(c2ccccc2)CC1,5.1,-16.6,22.7,10.4,3365,0.6,0.3
O=C(O)c1cc([N+](=O)[O-])ccc1NCCCc1ccccc1,27.4,44.4,7.3,-1.5,5633,-3.6,9.0
COc1ccc(NC(=O)CSc2nccn2-c2ccccc2)cc1,3.0,-14.4,/,/,3578,11.3,-1.6
COC(=O)c1c(C)[nH]c(C(=O)OC(C)C(=O)N(C)C2CCCCC2)c1C (stereo unspecified),4.9,-19.4,6.2,-0.5,4188,-12.5,0.4
COc1ccc(C2/C=C\CN(C(=O)Nc3ccc(C(F)(F)F)cc3)CC(=O)N2Cc2ccc(F)cc2)cc1 (stereo unspecified),/,-12.2,/,/,4376,/,0.4
COc1cc(NC(=O)c2cc(S(=O)(=O)N3CCCCC3)c[nH]2)cc(OC)c1,4.4,-23.9,10.3,5.2,5306,8.3,-0.8
COc1ccc(NC(=S)N2CCC(NC(=O)c3cccc(C)c3)CC2)cc1,0.4,-11.2,-10.6,-3.7,3539,5.7,-4.7
O=C(NCc1ccccn1)c1ccccc1OCc1ccc(F)cc1,4.9,-7.7,-1.6,-1.0,4536,3.4,7.8
Cn1ccnc1SCCNC(=O)CCc1nnc(CCCCc2ccccc2)o1,2.8,-13.7,12.1,15.0,3775,4.8,-0.3
